VDR inhibitor: vitamin D3 receptor (human) inhibition. P11473. VDR-SRC2-3 peptide fluorescence polarization, 2 h. Potency, µM, inactives show max response, negative = inhibition, actives largely listed as inhibitors. 400,000 compounds, 0.93% hits; active = well fitted inhibition curve with a large enough effect; inconclusive = small, poorly fitted or top-dose-only effect, or another doubt; inactive = no such curve, though single readings can be large or run the other way; note: series mostly up to about 120 µM
Target sequence (P11473 whole entry, looked up): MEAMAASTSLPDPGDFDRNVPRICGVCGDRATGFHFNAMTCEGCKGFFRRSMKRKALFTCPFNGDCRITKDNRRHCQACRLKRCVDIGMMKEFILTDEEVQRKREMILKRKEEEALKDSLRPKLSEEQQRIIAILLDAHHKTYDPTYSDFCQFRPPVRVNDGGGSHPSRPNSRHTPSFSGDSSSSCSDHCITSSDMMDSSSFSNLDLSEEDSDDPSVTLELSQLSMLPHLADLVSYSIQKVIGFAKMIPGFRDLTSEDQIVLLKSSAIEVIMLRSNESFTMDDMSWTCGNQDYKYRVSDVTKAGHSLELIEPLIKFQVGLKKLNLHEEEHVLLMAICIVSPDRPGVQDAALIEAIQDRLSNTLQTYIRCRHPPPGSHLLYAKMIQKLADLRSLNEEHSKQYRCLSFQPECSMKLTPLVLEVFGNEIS
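Signal is fluorescence polarization, reporting how far test compounds block the interaction of VDR with the SRC2-3 coregulator peptide after a 2 h room-temperature incubation.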
The depositor's hits bear a star; ? = inconclusive; & = joins results of further samples; [ ] = remark or other dose. % is set by controls: 0 for no effect and ±100 for the full control effect; potency is the fitted concentration of half-maximal effect.

SMILES	VDR inhibitor
CCOC(=O)c1c(C)[n+](-c2ccc(C)cc2)c(CC)c2cc(OC)c(OC)cc12	3%
O=C1c2cccc(Cl)c2C(=O)c2c1cccc2N1CCCC1	-17%
Cc1nc2c(O)cccc2c(=O)[nH]1	-2%
O=C(c1ccc([N+](=O)[O-])cc1)N1CCOCC1	14%
COc1cc(CNC(=O)c2ccc(NC(=O)N3CCCCc4ccccc43)cc2)cc(OC)c1OC	4%
COc1ccc(N2C(=O)C3C4C=CC(C4)C3C2=O)nn1 (centres undefined)	-9%
CCc1cc2c(=O)c(-c3nc4ccccc4n3C)c(C(C)C)oc2c(CN2CCN(C)CC2)c1O	16%
CCCc1cc(C(=O)Nc2sc(C(C)=O)c(C)c2C(=O)OCC)no1	-11%
COc1ccc(C(=O)N(C)C2CCN(C)CC2)cc1S(=O)(=O)Nc1cc(Cl)ccc1Cl	-27%
O=S(=O)(c1ccc(F)c(F)c1)N1CCN(c2ccccn2)CC1	-16%
CC(N)CCCP(=O)(O)O (centres undefined)	-3%
CC(C)c1ccc(OCC(=O)NC(C)c2ccccc2)cc1 (centres undefined)	-20%
O=C(COc1ccc2ccccc2c1)NC1CC(=O)N(c2ccccc2)C1 (centres undefined)	-8%
COCC(C)n1c(SCC(=O)N2CCc3ccccc3C2)nc2ccccc2c1=O (centres undefined)	-18%
O=C(N/N=C/c1ccncc1)c1ccccc1	5%
Cc1ccc(NC(=O)CSc2nncn2N)cc1C	-5%
Cc1ccccc1NC(=S)N(CCN1CCOCC1)Cc1ccccc1F	-7%
NC(=NCCc1ccccc1)NS(=O)(=O)c1ccc2ccccc2c1	-2%
COc1ccc2c(c1)c1c(c(=O)n(Cc3ccccc3)c(=O)n1CC(=O)Nc1ccccc1F)n2C	16%
Clc1cccc(C2Nc3cccc4cccc(c34)N2)c1	-27%
CCOC(=O)C(Cc1nc(OCc2ccccc2)cc(OCc2ccccc2)n1)=NO	-28%
CCCCCc1ccc(C(=O)CCCC)c(=S)[nH]1	0%
C#Cc1ccc(CN2CCC(Oc3cc(C(=O)NC4CC4)ccc3OC)CC2)cc1	-22%
CC(C)[C@H](NC(=O)[C@@H]1Cc2ccccc2CN1)C(=O)Nc1ccc2c(c1)OCO2	-9%
O=C(NCc1ccco1)C1CCN(S(=O)(=O)N2CCC3(CC2)OCCO3)CC1	5%
Remaining list, next part:
SMILES	VDR inhibitor
CCCc1nnc(NC(=O)CCC(=O)N2CCN(Cc3ccc(C)cc3C)CC2)s1	-12%
Cc1cc(C)n(-c2ccc(Cl)c(C(=O)NCc3ccccc3)n2)n1	-15%
O=C(/C=C/c1cccs1)Nc1cccc(NC(=O)/C=C/c2cccs2)n1	-23%
Cc1cc(C(=O)CN2C(=O)NC(C)(CC(C)C)C2=O)c(C)n1-c1ccc2c(c1)OCO2 (centres undefined)	13%
COc1ccc(C2C(C(N)=O)=C(C)Nc3nc(SCc4ccccc4Cl)nn32)cc1OC (centres undefined)	2%
Cc1cc(C)nc(NS(=O)(=O)c2ccc(NS(=O)(=O)c3ccccc3)cc2)n1	-6%
Cc1c(NC(=S)NNC(=O)CCC(=O)O)c(=O)n(-c2ccccc2)n1C	-8%
Cc1cc(C(N)=O)c2cc(Br)ccc2n1	-2%
CC1CN(C(=O)/C=C/c2cccc([N+](=O)[O-])c2)CC(C)O1 (centres undefined)	23%
CC1(C)SC2C(NC(=O)COc3ccccc3)C(=O)N2C1C(=O)O (centres undefined)	-8%&4%&-2%
CCC(=O)c1ccc(N2CCN(C(=O)c3ccccc3F)CC2)c(F)c1	-13%
Cc1c(C(=O)Nc2ccc(C(C)C)cc2)sc2nc3n(c(=O)c12)CCC3	0%
COc1cc2c(cc1OC)[C@@H](NC(=O)Cc1ccc(F)cc1)[C@H](OCc1ccccc1)C2	-5%
Fc1ccccc1-n1ncc2c1ncn1nc(Cc3ccccc3)nc21	4%
CC(=O)NC(CC(=O)OCC(=O)N1c2ccccc2NC(=O)C1(C)C)c1ccccc1 (centres undefined)	2%
COc1cc(C2C(C#N)=C(N)Oc3cc(C)oc(=O)c32)cc(OC)c1OC (centres undefined)	-18%
CN1CCN(NC(=O)c2cc([N+](=O)[O-])cc([N+](=O)[O-])c2)CC1	130%[activator]
COc1ccc(S(=O)(=O)NC2CCSc3ccccc32)cc1OC (centres undefined)	1%
CC(C)[C@H](NC(=O)c1ccccc1)C(=O)OCC(=O)c1ccc2c(c1)NC(=O)CO2	-12%
COc1ccccc1-c1cc(C(=O)Nc2cc(C)n(Cc3ccc(Cl)cc3)n2)no1	5%
CCOc1ccc(Cl)cc1C1CC(=O)Nc2cc(OC)c(OC)c(OC)c21 (centres undefined)	-13%
Cc1cc(=O)oc2c(CN3CCOCC3)c(O)ccc12	-17%
CC(=O)N/C(=N/c1nc(C)cc(C)n1)Nc1cccc(C)c1	-4%
O=C(N/N=C/c1ccco1)c1ccc(C(=O)N/N=C/c2ccco2)o1	-11%
CCCCNC(=S)NC(C)(C)CO	-1%

Four consecutive entries out of the list so far, for reference:
SMILES	VDR inhibitor
O=C(/C=C/c1cccs1)Nc1cccc(NC(=O)/C=C/c2cccs2)n1	-23%
Cc1cc(C(=O)CN2C(=O)NC(C)(CC(C)C)C2=O)c(C)n1-c1ccc2c(c1)OCO2 (centres undefined)	13%
COc1ccc(C2C(C(N)=O)=C(C)Nc3nc(SCc4ccccc4Cl)nn32)cc1OC (centres undefined)	2%
Cc1cc(C)nc(NS(=O)(=O)c2ccc(NS(=O)(=O)c3ccccc3)cc2)n1	-6%

Sorted by formula weight (lowest first): four of the compounds above
SMILES	VDR inhibitor
O=C(c1ccc([N+](=O)[O-])cc1)N1CCOCC1	14%
Cc1ccc(NC(=O)CSc2nncn2N)cc1C	-5%
CCCc1nnc(NC(=O)CCC(=O)N2CCN(Cc3ccc(C)cc3C)CC2)s1	-12%
COc1ccc(C2C(C(N)=O)=C(C)Nc3nc(SCc4ccccc4Cl)nn32)cc1OC (centres undefined)	2%

(list continues)
SMILES	VDR inhibitor
CCN(C(=O)CN1C(=O)S/C(=C\C=C\c2ccccc2)C1=O)C1CCS(=O)(=O)C1 (centres undefined)	7%
CC1=CC(C)(C)Nc2ccc(OC(=O)CN3C(=O)c4cccc5cccc(c45)C3=O)cc21	?
CC(C)(C)N(Cc1ccccc1)C(=O)COC(=O)C1=NN(c2ccccc2)C(=O)CC1	-1%
Cc1ccc(-c2nn3c(C)nnc3s2)cc1NC(=O)c1cccnc1	-9%
O=C(CSc1nc2ccccc2c(=O)[nH]1)c1ccc(O)cc1O	4%
CN(C(=O)c1ccccc1Cl)c1ccccc1C(=O)NCCc1ccccc1	-4%
CCCCN1C(=O)c2ccc(C(=O)NCc3ccco3)cc2C1=O	1%
O=C(CNC(=O)c1ccc([N+](=O)[O-])cc1)c1ccccc1	9%
N#Cc1c(CSCC(=O)O)cc(=O)n2c1[nH]c1ccccc12	-9%
C=CCNc1nc(N)c(C(=O)Nc2cc(C)on2)s1	1%
O=C(/C=C/c1ccc(S(=O)(=O)N2CCOCC2)cc1)NC(=S)Nc1ccc(N2CCOCC2)cc1	5%
CCCCN1C(=O)C(O)(CC(=O)c2ccccn2)c2ccccc21 (centres undefined)	-1%
CCC(C)NC(=O)C(=O)NCc1ccccn1 (centres undefined)	3%
COc1ccc(CP(=O)(c2ccccc2)c2ccccc2)cc1	-2%
NC(=O)C1CCN(C(=O)c2ccc(NC(=O)c3nsc4ccccc34)cc2)CC1	-8%
CCc1ccccc1N1CSC2=C(C#N)C(c3ccccc3F)CC(=O)N2C1 (centres undefined)	?
Cc1cc(NC(=O)COC(=O)C2CCC2)no1	15%
Cc1ccc(S(=O)(=O)O)c(C)c1N1CCCC1=O	0%
COc1ccc(OC)c(Nc2nc(N)c([N+](=O)[O-])c(N3CCOCC3)n2)c1	4%
O=C(O)c1cccc(Sc2cc(Cl)ccc2C(=O)O)c1	-30%
CCCC(=O)N1CCc2cc(OC)c(OC)cc2C1c1cc2cc3c(cc2[nH]c1=O)OCO3 (centres undefined)	-14%
O=C1CSC(c2cccc([N+](=O)[O-])c2)N1CCN1CCCCC1 (centres undefined)	5%
CCn1c(CSCc2ccc(C)cc2)n[nH]c1=S	19%
CCOC(=O)[C@@H]1[C@H]2COc3cc(OC)ccc3[C@@H]2N2C(=O)N(c3ccc(Br)cc3)C(=O)[C@]12C	-2%
Cc1cc(NCCN(C)C)n2nc(-c3cccs3)cc2n1	-3%

Four entries drawn at random from those above:
SMILES	VDR inhibitor
COc1ccc(CP(=O)(c2ccccc2)c2ccccc2)cc1	-2%
N#Cc1c(CSCC(=O)O)cc(=O)n2c1[nH]c1ccccc12	-9%
CCn1c(CSCc2ccc(C)cc2)n[nH]c1=S	19%
CC1=CC(C)(C)Nc2ccc(OC(=O)CN3C(=O)c4cccc5cccc(c45)C3=O)cc21	?

(cont.)
SMILES	VDR inhibitor
O=S(=O)(c1ccc(N2CCC(c3ccc(Cl)cc3)=N2)cc1)N(CCO)CCO	3%
OC[C@H]1O[C@@H](n2cnc3c(NC4CCCC4)ncnc32)[C@H](O)[C@@H]1O	8%&8%&14%
COc1ccc(S(=O)(=O)N2CCC(c3nc4ccccc4[nH]3)CC2)cc1	-5%
O=C1OCC2=C1C(c1ccccc1)CC(=O)N2c1ccc(F)cc1 (centres undefined)	8%
COCCCNC(=O)c1ccc(Cn2c(SCc3ccc(F)cc3)nc3cccnc32)cc1	10%
Cc1ccc(CNC(=O)CCCn2c(=O)c3ccccc3n(Cc3ccccc3Cl)c2=O)cc1	-19%
N#C/C(=C\c1ccncc1)C(=O)Nc1ccc(C(=O)O)cc1	-10%
O=C(CSc1nc2ccc([N+](=O)[O-])cc2[nH]1)c1ccc(Cl)cc1	-9%
Cc1ccc(NC(=O)c2cc3c(=O)oc4ccccc4c3s2)nc1	-16%
Cc1ccc(Cn2c(SCc3cccnc3)nc3c2c(=O)n(C)c(=O)n3C)cc1	-9%
CC(=O)c1c(C)[nH]c(C(=O)CN2CCN(S(=O)(=O)c3ccccc3[N+](=O)[O-])CC2)c1C	-9%
O=C(NCC1CCCO1)c1ccc(NC(=O)c2ccc([N+](=O)[O-])cc2)cc1 (centres undefined)	-12%
O=C(CSc1n[nH]c(-c2ccncc2)n1)Nc1ccc(Cl)c(Cl)c1	22%
Cc1cc(Oc2ccc(Cl)cc2)nc(-c2ccccn2)n1	-7%
Cc1cc(=O)oc2cc(NC(=O)C(CCCCN)NC(=O)C(CC3CCCCC3)NC(=O)OCC3c4ccccc4-c4ccccc43)ccc12 (centres undefined)	-14%
O=C(Nc1ccc2c(c1)OCO2)c1ccc2c(c1)OCO2	5%
O=C(Nc1nccs1)C1CC=CCC1C(=O)OCC(F)(F)C(F)F (centres undefined)	10%
COc1ccc(S(=O)(=O)N(CC(=O)NCCSc2ccc(C)cc2)c2ccc(C)cc2)cc1	-1%
CC(C)CCNC(=O)[C@H](Cc1ccccc1)N1Cc2ccccc2C1=O	12%
O=[N+]([O-])c1ccc(N/N=C/c2cn(-c3ccccc3)nc2-c2ccccc2)cc1	12%
O=C(NC1CCCC1)c1ccc(COc2ccccc2Br)o1	8%
Cc1cccc(NCc2ccccc2O)c1C	3%
CC(=O)Nc1ccc(/C=N/N2CCCCC2)cc1	-15%
Cc1ccccc1C1C(C#N)=C2N=C(N)c3c(sc4c3CCCCC4)N2C2=C1C(=O)CCC2 (centres undefined)	6%
O=C1C2C(C(=O)N1Cc1ccco1)C1C=CC2C12CC2 (centres undefined)	16%
Additional structures follow.
SMILES	VDR inhibitor
COC(=O)c1oc2ccccc2c1NC(=O)c1ccccc1O	-12%
C/C(=N\O)c1ccc2[nH]ccc2c1	-7%
COc1cc(Cl)c(C)cc1Nc1ncccn1	1%
Cc1c(C(N)=O)sc2ncn(CC(=O)N(C)C3CCCCC3)c(=O)c12	-7%
N#C/C(=C/c1ccc(-c2ccc(S(=O)(=O)N3CCOCC3)cc2)o1)C(=O)NC1CC1	-10%
OCC1OC(n2cnc3ccccc32)CC1O (centres undefined)	-18%
COc1ccc(C(=O)N/N=C(\Cc2ncc[nH]2)c2ccccc2)cc1	7%
Cc1ccc(CCNC(=O)c2ccc(NC3=NC4CS(=O)(=O)CC4S3)cc2)cc1 (centres undefined)	-16%
N#CC(C#N)=C1C=CC=CN1/C(=C\c1ccccc1Cl)C(=O)c1ccccc1	?
O=C(CNC(=O)c1cccc(F)c1)N/N=C/c1ccc([N+](=O)[O-])s1	12%
CC(C)c1nc2cc(Cl)ccc2n(Cc2ccccc2)c1=O	10%
CCc1nc2ccccc2n1CC(=O)Nc1cc(C)on1	18%
C=CCNS(=O)(=O)c1ccc(OC)c(C)c1	-5%
CC(=O)Nc1cccc(C(=O)OCc2csc(CC(=O)Nc3ccccc3C)n2)c1	?
Cc1noc(C)c1COC(=O)Cc1ccc(Cl)c(Cl)c1	-6%
O=S(=O)(c1ccccc1)N(Cc1cccc(F)c1)c1ccccc1	-8%
COc1ccc(C(=O)N2CCCC(Nc3ccc(C(C)C)cc3)C2)c(OC)n1 (centres undefined)	23%
COc1ccc2cc(/C=N/NC(=O)c3ccc(CN(c4cccc(Cl)c4Cl)S(C)(=O)=O)cc3)c(Cl)nc2c1	-5%
Cc1ccc(N2CCN(S(=O)(=O)c3cccc4ccccc34)CC2)cc1Cl	-5%

Some of these compounds in order of their number in VDR inhibitor, highest first.
SMILES	VDR inhibitor
Cc1noc(C)c1COC(=O)Cc1ccc(Cl)c(Cl)c1	-6%
N#C/C(=C/c1ccc(-c2ccc(S(=O)(=O)N3CCOCC3)cc2)o1)C(=O)NC1CC1	-10%
COC(=O)c1oc2ccccc2c1NC(=O)c1ccccc1O	-12%
Cc1ccc(CCNC(=O)c2ccc(NC3=NC4CS(=O)(=O)CC4S3)cc2)cc1 (centres undefined)	-16%
OCC1OC(n2cnc3ccccc32)CC1O (centres undefined)	-18%

High-throughput results: PubChem BioAssay, National Center for Advancing Translational Sciences (NCATS)

Only part of the results is shown, so the mix of outcomes need not match the whole.
